PMP22 txn prim – Cell-based coincidence reporter assay to measure PMP22 gene transcription in S16 Pmp22-F2sN cells - Primary screen; Potency, µM (highest dose often 57.5 µM), for the others: at the highest dose activity change, negative = inhibition, actives largely listed as inhibitors; actives 2% (n = 43,000); S16 Pmp22-F2sN Schwann cells (luciferase reporters placed in the Pmp22 gene), FLuc/NLuc coincidence luminescence, 24 h; AID 1508649, 2021; active = clear falling dose curves in both reporters; inconclusive = both reporters move, but less clearly or upward; inactive = either reporter flat; the % is the NLuc reporter signal; note: % is set by controls: 0 for no effect and ±100 for the full control effect; some results filed as inactive show a strong effect at the top dose
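Schwann cells carrying the coincidence reporter were exposed to library compounds for 24 h at 37C, then lysed and read for FLuc and, after quenching, NLuc luminescence on a CCD imager.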
HTT prom inh – Primary qHTS for Identification of Small Molecule Inhibitors of Huntingtin Promoter Activity. HEK293 HTT promoter firefly luciferase reporter (activity 0% = vehicle and -100% = no light), 24 h. Potency, µM (titrated, usually from 57.5 µM), without a hit: at the top dose activity change, negative = inhibition, hits mostly inhibitors. actives 0.93% (n = 48,000). AID 1508623, 2021; active = well fitted inhibition curve with a large enough effect; inconclusive = small, poorly fitted or top-dose-only effect; inactive = no such curve, though single readings can be large or run the other way; note: nearly all actives have a fitted effect of over 50% in size
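HEK293 Fluc reporter, 2,500 cells/well, 24 h pre-culture; cpds up to 57.5 uM final, 24 h 37 degrees C; Dual-Glo, 10 min RT; normalized vehicle = 0%, zero RLU = -100%.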
Active calls of the source: *; ? = inconclusive; . = not tested or not shown; & = joins results of further samples; [ ] = another dose, or the depositor's remark. Potency is the fitted concentration of half-maximal effect.

SMILES	PMP22 txn prim	HTT prom inh
CN1C(=O)c2ccccc2Sc2ccc(NC(=O)c3ccc(C#N)cc3)cc21	?	?
CC(C)C1N=C2c3ccccc3N=C(SCC(=O)NCc3ccc(Cl)cc3)N2C1=O (stereo not drawn)	?	-22.9%
CSc1ccc(CCNC(=O)Cn2ncc3c([nH]c4ccccc43)c2=O)cc1	3.8%	-2.4%
CCNC(=O)C1CCN(Cc2cc3ccccc3n2Cc2ccc(C)cc2)CC1	?	-15.7%
Cc1ccc(CNC(=O)CN2C(=O)C3CCCCN3c3ccc(C(=O)N4CCCC4)cc32)cc1 (stereo not drawn)	-5.1%	-6.7%
O=C(CSc1nc2c([nH]c3ccccc32)c(=O)n1-c1ccc(F)cc1)N1CCCCC1	-17.1%	-4.3%
CCOC(=O)c1cccc(NC(=O)C2COc3ccc(OC)cc3C2)c1 (stereo not drawn)	8.4%	-31.0%
CN(C(=O)CSc1nc2ccc(NC(=O)c3cccs3)cc2s1)c1ccccc1	?	?
CCS(=O)(=O)c1ccccc1C(=O)Nc1ccc(-c2nc3ccccc3s2)cc1	-13.8%	-24.8%
COCCCn1c(=O)c2sccc2n2c(CCCC(=O)NC3CCC(C)CC3)nnc12 (stereo not drawn)	-6.2%	-14.8%
CCOc1ccc(C(=O)NCCc2sc(-c3ccc(OC)c(OC)c3)nc2C)cc1	-0.3%	0.1%
Cc1oc(-c2ccc(Cl)cc2)nc1CSc1nnc(C)n2c1cc1sccc12	-30.8%	-0.5%
CCOC(=O)c1c(NC(=O)/C=C/c2ccc(OCC)cc2)sc(C)c1C	9.3%	-8.5%
CCN(CC)CCCNC(=O)Cn1nc(N2CCN(c3ccccc3OC)CC2)ccc1=O	-2.0%	-4.7%
Cc1ccc(Cl)cc1NC(=O)c1ccc2snnc2c1	-11.0%	-10.3%
O=C(/C=C/c1ccccc1)Nc1cc(-c2nc3ccccc3o2)ccc1Cl	-8.8%	-9.0%
Cc1ccc(NC(=O)[C@@H](c2ccccc2)N2Cc3ccccc3C2=O)cc1F	6.1%	-29.0%
COc1ccc(OC)c(NC(=O)c2cc(C3CC3)nc3c2c(C)nn3-c2ccc(C)cc2)c1	-18.4%	-13.2%
Cc1ccc(-n2c(=O)c3c(c4cc(C)ccc4n3C)n(CC(=O)Nc3cc(C)cc(C)c3)c2=O)cc1	-1.0%	9.9%
CCOC(=O)c1c(-c2ccc(C)cc2)csc1NC(=O)c1cc(-c2ccc(OC)cc2)on1	-10.8%	1.8%
Cn1cc(C(=O)NCCc2ccccc2)c(=O)c2cc(S(=O)(=O)N3CCCCC3)ccc21	-8.9%	-2.5%
O=C(CCn1ccc2cc(S(=O)(=O)N3CCCC3)ccc21)NCc1cccc(F)c1	?	-22.7%
CCc1cccc(C)c1NC(=O)CSc1nc2c(c(=O)[nH]1)CCC2	-7.1%	-20.6%
CCC[C@@H](NC(=O)[C@@H]1[C@H]2CCC[C@@H]2CN1C(=O)[C@@H](NC(=O)[C@@H](NC(=O)c1cnccn1)C1CCCCC1)C(C)(C)C)C(=O)C(=O)NC1CC1	.	?
CCOc1ccccc1N(CC)C(=O)c1cc2ccc3cccnc3c2[nH]1	?	-13.9%
O=[N+]([O-])c1ccc(O)c(-c2ccnc3cc(-c4ccccc4)nn23)c1	?	?
COc1cc(CN(C(=O)Nc2ccccc2)c2ccccn2)cc(OC)c1OC	-23.9%	1.0%
COc1ccc(S(=O)(=O)c2nnn(-c3ccc(C)c(Cl)c3)c2C)cc1	-21.9%	?
CCOC(=O)c1c(NC(=O)c2ccc(Br)cc2)sc2c1CCCC2	7.1%	14.1%
COc1ccc(NC(=O)Cn2c(=O)c3cccn3c3ccccc32)cc1Cl	?	-11.6%
Cc1ccc(CCNC(=O)c2sc3nc4n(c(=O)c3c2C)CCCC4)cc1	-29.3%	-17.8%
COc1ccc(CNC(=O)Cc2c(C)c3c(cc(C)c4c(C)c(C)oc43)oc2=O)cc1OC	-28.4%	-0.3%
CCOc1ccc(CNC(=O)c2sc3nc(C)cc(C)c3c2-n2cccc2)cc1	11.8%	2.6%
CC(C)c1ccc(NC(=O)N2CCN(c3ccc(Cl)c(Cl)c3)CC2)cc1	11.3µM*	31.6µM*
CCc1ccc(C(=O)c2cn(CC(=O)Nc3cc(C)ccc3C)c3nc(C)ccc3c2=O)cc1	?	-2.0%
Cn1nc(-c2ccccc2F)c2cc(C(=O)N3CCN(c4ccccc4F)CC3)sc21	?	?
COc1ccc(CNC(=O)c2ccc3c(O)c(S(=O)(=O)c4ccccc4)c(=O)[nH]c3c2)cc1	7.4%	-4.8%
Cc1cc(F)ccc1S(=O)(=O)NCC(c1ccco1)S(=O)(=O)c1cccs1 (stereo not drawn)	?	-16.5%
Cc1ccc(C)c(Cn2c(SCC(=O)NCc3ccccc3)nc3ccccc32)c1	?	?
COc1ccc(CNC(=O)Cn2nc3c(cc2=O)CCCC3)cc1	-35.3%	2.4%

In the list so far, five have fluorine:
SMILES	PMP22 txn prim	HTT prom inh
O=C(CSc1nc2c([nH]c3ccccc32)c(=O)n1-c1ccc(F)cc1)N1CCCCC1	-17.1%	-4.3%
Cc1ccc(NC(=O)[C@@H](c2ccccc2)N2Cc3ccccc3C2=O)cc1F	6.1%	-29.0%
O=C(CCn1ccc2cc(S(=O)(=O)N3CCCC3)ccc21)NCc1cccc(F)c1	?	-22.7%
Cn1nc(-c2ccccc2F)c2cc(C(=O)N3CCN(c4ccccc4F)CC3)sc21	?	?
Cc1cc(F)ccc1S(=O)(=O)NCC(c1ccco1)S(=O)(=O)c1cccs1 (stereo not drawn)	?	-16.5%

The list continues:
SMILES	PMP22 txn prim	HTT prom inh
COc1ccc(Br)cc1CNC(=O)Cn1c(=O)c2cccn2c2ccc(F)cc21	?	3.8%
COc1ccc(OC)c(NC(=O)N2CCC(N3CCN(Cc4ccc(F)cc4)C(=O)C3=O)CC2)c1	-0.4%	-21.4%
Cc1cn2c(=O)cc(COC(=O)c3ccc(NC(=O)COc4ccccc4C)cc3)nc2s1	8.8%	-19.7%
CC(=O)N1c2ccc(S(=O)(=O)N3CCCCCC3)cc2CC1C(=O)NCc1ccccc1F (stereo not drawn)	?	-24.2%
CCCCCN1C(C(=O)c2ccccc2)=C(NC(=O)c2ccc(OC)c(OC)c2)c2ccccc2S1(=O)=O	-98.8%	?
Cc1cccc(-c2nc(S(=O)(=O)c3ccc(Cl)cc3)c(N3CCCCCC3)o2)c1	-26.3%	?
O=C(Cc1ccc(F)cc1)NCc1ccc2c(c1)CCN2C(=O)c1ccc(F)cc1	?	-19.7%
O=C(CCCN1C(=O)c2cccnc2Oc2ccc(Cl)cc21)NCc1ccc(F)cc1	-13.0%	-6.5%
COc1cccc(-c2ccc3c(N)c(C(=O)Nc4cc(C(F)(F)F)ccc4OC)sc3n2)c1	6.3%	14.4%
Cc1ccc(-n2ccnc(NCCc3ccc(S(N)(=O)=O)cc3)c2=O)cc1C	?	?
O=C(NCc1ccccc1)c1nn(-c2ccccc2)nc1CO	-6.9%	?
Cc1cccc(CC(=O)N2CC(=O)Nc3ccc(F)cc3C2c2ccccc2)c1 (stereo not drawn)	-10.4%	-28.1%
Cc1ccc(CNC(=O)C2CCN(C(=O)c3ccc(-n4ccc5ccccc54)s3)CC2)cc1	-19.9%	?
COc1ccc(S(=O)(=O)NCCSc2nnnn2-c2ccccc2)cc1	-28.4%	-12.5%
O=C1CC(c2nnc(Cc3ccccc3Cl)o2)CN1c1ccccc1 (stereo not drawn)	-14.4%	-15.4%
Cc1cccc(-n2cnc3cc(C(=O)NCc4ccccc4Cl)ccc32)c1	-5.1%	?
Cc1ccc2onc(CC(=O)Nc3cc(F)ccc3F)c2c1	?	28.0%
CCOc1ccccc1N1CC(c2nc3ccccc3n2CCCOc2ccc(OC)cc2)CC1=O (stereo not drawn)	-6.8%	-6.5%
COC(=O)c1ccc(NC(=O)C2CCN(c3ncnc4c3nc3n4CCCCC3)CC2)cc1	-2.3%	6.2%
Cc1ccc(NC(=O)CSc2ncnc3c2sc2ccccc23)cc1C	-1.9%	-12.3%
COc1ccccc1Nc1nn2c(=O)c3ccc(C(=O)NCc4cccs4)cc3nc2s1	10µM*	-32.1%
COC(=O)c1ccccc1NC(=O)Cn1c(=O)n(CCCCC(=O)NCc2ccc3c(c2)OCO3)c(=O)c2ccccc21	?	-2.7%
COc1ccc(Nc2ncnc3scc(-c4ccc(F)cc4)c23)cc1	7.4%	-16.7%
Cc1ccc2oc(-c3ccc(NC(=O)c4cccc(F)c4)c(C)c3)nc2c1	-15.7%	1.3%
COc1ccc(N2CCN(c3ccc(-c4nc(-c5cccc(C)c5)no4)cc3[N+](=O)[O-])CC2)cc1	7.7%	25.1%
COc1cc2c(cc1OC)CN(C(=O)[C@H](C)N[C@@H](CCc1ccccc1)C(=O)O)[C@H](C(=O)O)C2	.	?
Cc1ccc(NS(=O)(=O)c2ccc3c(c2)NC(=O)CCS3)cc1F	?	-33.0%
Cn1c(=O)c2sccc2n2c(CCCC(=O)Nc3ccc(Oc4ccccc4)cc3)nnc12	-24.6%	?
N#Cc1ccccc1NC(=O)C(=O)NCC(c1ccc2c(c1)OCO2)N1CCN(c2ccccc2)CC1 (stereo not drawn)	7.0%	4.0%
CC1CCN(c2cc3c(cc2F)c(=O)c(S(=O)(=O)c2ccc(Cl)cc2)cn3C)CC1	-16.3%	-4.8%
COc1ccc(C(=O)Nc2cccc(-c3cn4ccsc4n3)c2)cc1OC	?	39.6%[activator]
Cc1ccc(-n2nc(C(=O)NCCN(C)C)c(=O)n(C)c2=O)cc1	-12.1%	-3.3%
COc1cccc(C(=O)Nc2ccccc2-c2nnc(-c3cccc(OC)c3)o2)c1	?	21.5%
FC(F)(F)c1cc(Nc2nc3ccccc3c3nncn23)ccc1Cl	-28.9%	-7.5%
Cc1cc(C)c(NC(=O)CCN2CCCCC2)c(C)c1	0.7%	0.5%
CCOc1ccc(S(=O)(=O)N2CCN(c3cc(Cl)ccc3Cl)CC2)c2ccccc12	?	6.2%
Nc1nc2c(ncn2COCCO)c(=O)[nH]1	.	-11.0%&8.5%
COc1ccc(CCNC(=O)CCS(=O)(=O)c2cc(Br)cc3c2N(C(C)=O)CC3)cc1OC	-13.9%	-13.1%
O=c1cc(-c2ccccc2)n2c(SCc3c(F)cccc3Cl)nnc2[nH]1	11.7%	-5.8%
Fc1cccc(CSc2nc(NCCc3ccccc3)c3ccccc3n2)c1	?	-9.0%
COc1ccc(-n2c(SCC(=O)N3CCC(C)CC3)nc3c([nH]c4ccccc43)c2=O)cc1	-17.1%	-8.9%
O=C(Cn1c2ncccc2c(=O)n1-c1ccccc1)Nc1ccc(F)c(F)c1	7.2%	15.0%
COc1ccc(C(=O)NCC(=O)OCc2cc(=O)n3nc(C4CCCCC4)sc3n2)cc1	2.6%	-4.0%
COCCCN1CN=C(NS(=O)(=O)c2ccc(NC(C)=O)cc2)NC1	3.7%	-10.9%
Cc1cc(Cl)ccc1NC(=O)CN1C(=O)C(=O)c2ccccc21	?	-10.5%
Cc1ccc(NC(=O)N2CCN(c3cc(-c4noc(C)n4)ccc3C)CC2)c(C)c1	-14.4%	-15.1%
CCC1CCCCN1C(=O)Cn1c(=O)oc2cc(S(=O)(=O)N3CCCCC3)ccc21 (stereo not drawn)	-25.7%	-16.9%
CCN(CC)S(=O)(=O)c1ccc2c(c1)N(CC(=O)N(C)Cc1ccccc1)C(=O)CO2	?	-12.8%
Cc1ccc(CNC(=O)CN2C(=O)CCn3nc(-c4ccccc4)cc32)cc1	12.7%	-21.0%
COc1ccc(C2C=C(c3ccccc3)Nc3nc(NS(=O)(=O)c4ccccc4)nn32)cc1 (stereo not drawn)	-58.2%	-8.3%
Cc1cccc(N2CCN(c3cc(C)nc4c(-c5ccc(Cl)cc5)c(C)nn34)CC2C)c1 (stereo not drawn)	3.9%	-22.1%
COc1ccc(N2CCN(S(=O)(=O)c3ccc(CC(C)C)cc3)CC2)cc1	-2.7%	-18.6%
O=C(CCC1N=C2c3ccccc3N=C(SCC(=O)NCCc3ccccc3)N2C1=O)NCc1ccc(F)cc1 (stereo not drawn)	-18.2%	-20.2%
Cc1nc(SCC(=O)Nc2ccc(C(=O)O)cc2)n[nH]1	-0.8%	-2.7%
CCCn1c2ccccc2c2cnn(CC(=O)NCCCN(CC)c3ccccc3)c(=O)c21	-20.2%	-26.3%
CCOc1ccc(C(CC(=O)Nc2ccc(C(=O)OC)cc2)N2Cc3ccccc3C2=O)cc1OC (stereo not drawn)	0.9%	-14.3%
COc1ccc(NC(=O)C2=CC(c3cccs3)=NS(=O)(=O)N2C)cc1	-18.7%	-30.2%
COc1cc(OC)cc(-c2cc3nc(C)c(CCC(=O)Nc4ccccc4OC)c(C)n3n2)c1	7.3%	?
O=C(NCCO[N+](=O)[O-])c1cccnc1	.	8.2%&2.2%
CCOc1cc(C(=O)NCC(c2ccc(N(C)C)cc2)N2CCOCC2)cc(OCC)c1OCC (stereo not drawn)	2.6%	-14.6%

Bioassay records from PubChem.
